Assay outcomes from PubChem BioAssay.
A1 apoptosis 2 – A1 inhibitors via caspase activation, primary screen, cell-based, luminescence, HTS, two replicates. MEF A1-2A-BIM cells, caspase-Glo luminescence, 3 h; percent of clofoctol response, DMSO zero. caspase activation, % (test concentration not listed). 24,000 tested, under 10 active. AID 2465, 2010; in the data active = caspase activation above about 5.9%; inconclusive = no clear call, values can overlap the other calls; inactive = below about 2.2%;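 note: wells of about 30 µL received 50 nL stock; the first replicate is given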
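Evaluation: Caspase-3/7 activity from luminescence increase | Assay system: A1-2A-BIM mouse embryonic fibroblasts | Quantity: 2500 MEF cells/well | Medium: RPMI-1640 plus 10% FBS | Detection: Caspase-Glo 3/7 luminescence, 1 h at room temperature | Dosing: 50 nL compound per well, pinned | Timing: Cells settled overnight, compound exposure 3 h at 37 °C, 5% CO2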
Numbers without * were called inactive; u = inconclusive. Some of the compounds tested; count on the stated rates, not on these rows.

The first 5 entries as a preview:
SMILES	A1 apoptosis 2
COc1ccc(NC(=O)N(C)C[C@@H]2Oc3ccc(NC(=O)Cc4ccccc4)cc3C(=O)N([C@H](C)CO)C[C@@H]2C)cc1	1.0
C[C@@H]1CN([C@H](C)CO)C(=O)Cc2cc(NC(=O)NC3CCCCC3)ccc2O[C@@H]1CN(C)Cc1ccc(Cl)c(Cl)c1	0.8
CC(C)NC(=O)N(C)C[C@@H]1Oc2ccc(NC(=O)CCN3CCOCC3)cc2CC(=O)N([C@H](C)CO)C[C@@H]1C	-0.9
COCCCNC(=O)[C@@]1(Cc2ccccc2)COC(c2ccc(OCCCO)cc2)=N1	1.2
C[C@H]1CN([C@@H](C)CO)C(=O)Cc2cc(NC(=O)C3CC3)ccc2O[C@H]1CN(C)C(=O)Nc1cccc2ccccc12	1.3

The listing, repeating the preview:
SMILES	A1 apoptosis 2
COc1ccc(NC(=O)N(C)C[C@@H]2Oc3ccc(NC(=O)Cc4ccccc4)cc3C(=O)N([C@H](C)CO)C[C@@H]2C)cc1	1.0
C[C@@H]1CN([C@H](C)CO)C(=O)Cc2cc(NC(=O)NC3CCCCC3)ccc2O[C@@H]1CN(C)Cc1ccc(Cl)c(Cl)c1	0.8
CC(C)NC(=O)N(C)C[C@@H]1Oc2ccc(NC(=O)CCN3CCOCC3)cc2CC(=O)N([C@H](C)CO)C[C@@H]1C	-0.9
COCCCNC(=O)[C@@]1(Cc2ccccc2)COC(c2ccc(OCCCO)cc2)=N1	1.2
C[C@H]1CN([C@@H](C)CO)C(=O)Cc2cc(NC(=O)C3CC3)ccc2O[C@H]1CN(C)C(=O)Nc1cccc2ccccc12	1.3
COc1ccc(NC(=O)N(C)C[C@@H]2OCCCC[C@@H](C)Oc3ccc(NC(=O)NC4CCCCC4)cc3C(=O)N([C@H](C)CO)C[C@@H]2C)cc1	1.6
COc1ccc(NC(=O)Nc2ccc3c(c2)C(=O)N([C@@H](C)CO)C[C@H](C)[C@@H](CN(C)C)OCCCC[C@@H](C)O3)cc1	0.8
COc1ccc(CN(C)C[C@@H]2OCCCC[C@@H](C)Oc3ccc(NC(=O)NC(C)C)cc3C(=O)N([C@@H](C)CO)C[C@@H]2C)cc1	0.8
C[C@H](CO)N1C[C@H](C)[C@H](CN(C)Cc2ccc(Oc3ccccc3)cc2)Oc2c(NS(=O)(=O)c3ccc(Cl)cc3)cccc2C1=O	-5.9
C[C@@H]1CN([C@H](C)CO)C(=O)c2cccc(NS(C)(=O)=O)c2O[C@@H]1CN(C)C	1.0
CC(C)NC(=O)N(C)C[C@H]1OCCCC[C@H](C)Oc2ccc(NS(C)(=O)=O)cc2C(=O)N([C@@H](C)CO)C[C@H]1C	0.2
COc1ccc(NC(=O)N(C)C[C@@H]2Oc3ccc(NC(=O)CCCCCC(=O)Nc4ccccc4N)cc3CC(=O)N([C@H](C)CO)C[C@H]2C)cc1	1.2

Three consecutive entries from above:
SMILES	A1 apoptosis 2
COc1ccc(NC(=O)N(C)C[C@@H]2Oc3ccc(NC(=O)Cc4ccccc4)cc3C(=O)N([C@H](C)CO)C[C@@H]2C)cc1	1.0
C[C@@H]1CN([C@H](C)CO)C(=O)Cc2cc(NC(=O)NC3CCCCC3)ccc2O[C@@H]1CN(C)Cc1ccc(Cl)c(Cl)c1	0.8
CC(C)NC(=O)N(C)C[C@@H]1Oc2ccc(NC(=O)CCN3CCOCC3)cc2CC(=O)N([C@H](C)CO)C[C@@H]1C	-0.9

Remaining list, next part.
SMILES	A1 apoptosis 2
COc1ccc(S(=O)(=O)Nc2ccc3c(c2)C(=O)N([C@H](C)CO)C[C@@H](C)[C@H](CN(C)S(=O)(=O)c2ccc(OC)cc2)OCCCC[C@H](C)O3)cc1	0.2
O=C1O[C@@H](c2ccccc2)[C@@H](c2ccccc2)N2[C@@H](c3ccc(O)cc3)[C@]3(C(=O)Nc4ccc(C#CCCO)cc43)[C@@H](C(=O)N3CCN(c4ncccn4)CC3)[C@H]12	0.4
C[C@@H]1CN([C@H](C)CO)C(=O)c2cc(NC(=O)CCCCCC(=O)Nc3ccccc3N)ccc2O[C@@H](C)CCCCO[C@@H]1CN(C)S(=O)(=O)c1ccc(Cl)cc1	1.2
C[C@H](CO)N1C[C@H](C)[C@@H](CN(C)C(=O)Nc2ccc(C(F)(F)F)cc2)OCCCC[C@H](C)Oc2ccc(NS(C)(=O)=O)cc2C1=O	0.6
CNC[C@@H]1OCCCC[C@@H](C)Oc2ccc(NC(=O)NC(C)C)cc2C(=O)N([C@H](C)CO)C[C@H]1C	0.3
C[C@@H]1CCCCO[C@H](CN(C)S(=O)(=O)c2ccc(F)cc2)[C@@H](C)CN([C@H](C)CO)C(=O)c2cc(NC(=O)Nc3ccc(F)cc3)ccc2O1	0.3
C[C@@H]1CCCCO[C@@H](CN(C)Cc2ccncc2)[C@@H](C)CN([C@H](C)CO)C(=O)c2cc(NC(=O)CCCCCC(=O)Nc3ccccc3N)ccc2O1	0.7
C[C@@H]1CCCCO[C@H](CN(C)C(=O)C2CCCCC2)[C@H](C)CN([C@@H](C)CO)C(=O)c2cc(NS(=O)(=O)c3ccccc3)ccc2O1	1.4
O=C(NO)c1cccc(C(=O)N/N=C/c2cc(Cl)cc(Cl)c2O)c1	1.9
C[C@H]1CN([C@@H](C)CO)C(=O)Cc2cc(NC(=O)CCN3CCOCC3)ccc2O[C@@H]1CN(C)S(=O)(=O)c1ccc(Cl)cc1	1.0
COc1ccc(COCC23N=C4SCc5ccccc5C(=O)N4[C@H](c4ccccc4O2)[C@H]3CO[Si](C)(C)C(C)(C)C)cc1	0.2
CCCC(O)C#Cc1cnc2c(c1)C(=O)N([C@H](C)CO)C[C@H](C)[C@H](CN(C)C(=O)Nc1ccc(F)cc1)O2 (stereo partly specified)	0.0
O=C(NO)c1ccc(C(=O)N/N=C/c2cccc(OCCO)c2)cc1	-0.6
Cc1noc(C)c1S(=O)(=O)Nc1ccc2c(c1)CC(=O)N([C@@H](C)CO)C[C@H](C)[C@H](CN(C)C(=O)Nc1ccc(C(F)(F)F)cc1)O2	0.3
C[C@@H]1CN([C@H](C)CO)C(=O)Cc2cc(NC(=O)Nc3ccc4c(c3)OCO4)ccc2O[C@@H]1CN(C)Cc1ccc(Cl)c(Cl)c1	0.5
C[C@H](CO)N1C[C@H](C)[C@@H](CN(C)S(=O)(=O)c2cccs2)Oc2c(NC(=O)C3CCCCC3)cccc2C1=O	1.1
C[C@H]1CN([C@@H](C)CO)C(=O)Cc2cc(NC(=O)NC3CCCCC3)ccc2O[C@@H]1CN(C)S(=O)(=O)c1ccc(F)cc1	-0.3
CC(C)NC(=O)N(C)C[C@H]1OCCCC[C@H](C)Oc2ccc(NC(=O)CCC(F)(F)F)cc2C(=O)N([C@@H](C)CO)C[C@@H]1C	0.2
COc1ccc(CN(C)C[C@@H]2Oc3c(NS(=O)(=O)c4ccc(Cl)cc4)cccc3C(=O)N([C@@H](C)CO)C[C@H]2C)cc1	-0.3
COc1ccc(COCC23N=C4SCc5ccccc5C(=O)N4[C@H](c4ccccc4O2)[C@H]3COC(=O)c2ccccc2)cc1	0.0
CC(C)NC(=O)N(C)C[C@H]1Oc2c(NS(=O)(=O)c3ccc(F)cc3)cccc2C(=O)N([C@@H](C)CO)C[C@H]1C	-0.8
C[C@H](CO)N1C[C@H](C)[C@@H](CN(C)S(=O)(=O)c2ccc(Cl)cc2)Oc2ccc(NC(=O)CCN3CCOCC3)cc2CC1=O	-1.0
COc1ccc(NC(=O)Nc2ccc3c(c2)C(=O)N([C@H](C)CO)C[C@H](C)[C@@H](CN(C)C(=O)Nc2ccccc2)OCCCC[C@@H](C)O3)cc1	-0.4
O=C1O[C@H](c2ccccc2)[C@H](c2ccccc2)N2[C@H]1[C@@H](C(=O)NC[C@H](O)c1ccccc1)[C@]1(C(=O)Nc3ccc(C#CC4(O)CCCCCC4)cc31)[C@H]2c1ccc(OCCO)cc1	-0.8
C[C@@H]1CCCCO[C@H](CN(C)Cc2ccncc2)[C@@H](C)CN([C@@H](C)CO)C(=O)c2cc(NS(C)(=O)=O)ccc2O1	u
C[C@H](CO)N1C[C@H](C)[C@H](CN(C)S(=O)(=O)c2ccc(F)cc2)OCCCC[C@H](C)Oc2ccc(NC(=O)Nc3ccc4c(c3)OCO4)cc2C1=O	0.5
C=CCN1Cc2ccccc2[C@H]2OC(c3ccc(OCCCO)cc3)=N[C@@]2(CC=C)C1=O	0.3
C[C@@H]1CN([C@@H](C)CO)C(=O)Cc2cc(NS(=O)(=O)c3ccccc3)ccc2O[C@H]1CN(C)C(=O)Nc1cccc2ccccc12	-1.0
COc1ccc(S(=O)(=O)Nc2cccc3c2O[C@H](CN(C)Cc2ccc(Oc4ccccc4)cc2)[C@@H](C)CN([C@H](C)CO)C3=O)cc1	0.7
Cc1noc(C)c1NC(=O)Nc1cccc2c1O[C@H](CN(C)C)[C@@H](C)CN([C@H](C)CO)C2=O	-0.9
Cc1noc(C)c1NC(=O)Nc1ccc2c(c1)C(=O)N([C@H](C)CO)C[C@@H](C)[C@@H](CN(C)S(=O)(=O)c1cn(C)cn1)O2	0.5
C[C@@H]1CN([C@H](C)CO)C(=O)c2cc(NC(=O)c3ccncc3)ccc2O[C@@H](C)CCCCO[C@@H]1CN(C)Cc1ccncc1	1.9
C=CCOC(=O)[C@H]1[C@@H]2C(=O)O[C@@H](c3ccccc3)[C@@H](c3ccccc3)N2[C@@H](c2ccc(OCCOC(=O)[C@@H]3C[C@@H]4C(=O)N[C@@H](Cc5ccccc5)C(=O)N4[C@@H]3c3ccc(O)cc3)cc2)[C@]12C(=O)Nc1ccccc12	-1.1
C[C@H](CO)N1C[C@H](C)[C@H](CN(C)CC2CCCCC2)OCCCC[C@H](C)Oc2ccc(NC(=O)Nc3ccccc3)cc2C1=O	0.1
O=C(N/N=C/c1c(O)ccc2ccccc12)c1ccccn1	0.0
C[C@@H]1CN([C@@H](C)CO)C(=O)c2cccc(N(C)C)c2O[C@@H]1CN(C)Cc1ccc(C(=O)O)cc1	-0.5
C[C@@H]1CN([C@@H](C)CO)C(=O)CCCn2cc(nn2)CO[C@@H]1CN(C)Cc1ccc2cccnc2c1	0.5
C[C@@H]1CN([C@@H](C)CO)C(=O)Cc2cc(NC(=O)Cc3ccccc3)ccc2O[C@H]1CN(C)Cc1ccc(-c2ccccc2)cc1	1.5
C[C@@H]1CN([C@H](C)CO)C(=O)c2cc(NC(=O)Cc3ccccc3)ccc2O[C@@H](C)CCCCO[C@@H]1CN(C)C	-0.3
Cc1ccc(S(=O)(=O)Nc2ccc3c(c2)C(=O)N([C@H](C)CO)C[C@@H](C)[C@H](CN(C)C(=O)Nc2ccc(C(F)(F)F)cc2)OCCCC[C@H](C)O3)cc1	-0.5
COc1ccc(S(=O)(=O)N(C)C[C@H]2OCCCC[C@@H](C)Oc3ccc(NC(=O)c4ccncc4)cc3C(=O)N([C@@H](C)CO)C[C@@H]2C)cc1	-1.4
CNC[C@@H]1Oc2c(NC(=O)c3nc4ccccc4s3)cccc2C(=O)N([C@H](C)CO)C[C@H]1C	0.0
C[C@@H]1CN([C@@H](C)CO)C(=O)c2cc(NC(=O)Nc3ccc4c(c3)OCO4)ccc2O[C@@H](C)CCCCO[C@@H]1CN(C)S(=O)(=O)c1ccc(F)cc1	1.0
COc1ccc(NC(=O)Nc2ccc3c(c2)CC(=O)N([C@H](C)CO)C[C@@H](C)[C@H](CN(C)S(=O)(=O)c2ccc(C)cc2)O3)cc1	-0.5
C[C@H](CO)N1C[C@H](C)[C@H](CN(C)C(=O)Nc2ccccc2)Oc2ccc(NC(=O)Cc3cn(C)c4ccccc34)cc2CC1=O	0.4
CNC[C@@H]1Oc2c(N)cccc2C(=O)N([C@@H](C)CO)C[C@H]1C	0.2
CC(C)NC(=O)Nc1cccc2c1O[C@H](CN(C)C(=O)Nc1ccc3c(c1)OCO3)[C@H](C)CN([C@H](C)CO)C2=O	-0.7
C[C@@H]1CN([C@@H](C)CO)C(=O)c2cc(NS(=O)(=O)c3cn(C)cn3)ccc2O[C@@H](C)CCCCO[C@@H]1CN(C)C(=O)CCC(F)(F)F	1.5
C[C@H](CO)N1C[C@H](C)[C@@H](CN(C)Cc2ccc(Oc3ccccc3)cc2)Oc2c(NC(=O)C3CCOCC3)cccc2C1=O	0.2
C[C@@H]1CCCCO[C@H](CN(C)S(=O)(=O)c2ccccc2)[C@H](C)CN([C@H](C)CO)C(=O)c2cc(NC(=O)Cc3ccccc3)ccc2O1	-0.5
COc1ccc(S(=O)(=O)N(C)C[C@@H]2OCCCC[C@H](C)Oc3ccc(NC(=O)Cc4ccccc4)cc3C(=O)N([C@H](C)CO)C[C@H]2C)cc1	-0.5
C[C@H](CO)N1C[C@H](C)[C@H](CN(C)C(=O)Nc2ccccc2)Oc2ccc(NC(=O)Cc3ccccc3)cc2C1=O	-0.4
Cc1ccc(S(=O)(=O)Nc2ccc3c(c2)CC(=O)N([C@@H](C)CO)C[C@H](C)[C@@H](CN(C)Cc2ccc(C(=O)Nc4ccccc4N)cc2)O3)cc1	0.5
C[C@@H]1CCCCO[C@H](CN(C)C(=O)Cc2ccccc2)[C@@H](C)CN([C@H](C)CO)C(=O)c2cc(NC(=O)Nc3ccc(F)cc3)ccc2O1	-0.5
C[C@H](CO)N1C[C@H](C)[C@H](CN(C)Cc2ccccc2)Oc2ncc(-c3cc4ccccc4o3)cc2C1=O	-1.1
C[C@H]1CCCCO[C@H](CN(C)C(=O)CCC(F)(F)F)[C@@H](C)CN([C@@H](C)CO)C(=O)c2cc(NC(=O)NC3CCCCC3)ccc2O1	0.8
C[C@@H]1CN([C@@H](C)CO)C(=O)CCCn2nncc2CO[C@H]1CN(C)C(=O)OCc1ccccc1	-0.6
C[C@H](CO)N1C[C@H](C)[C@@H](CN(C)Cc2ccc(Oc3ccccc3)cc2)Oc2ccc(NC(=O)CCCN(C)C)cc2C1=O	-0.3
